Screening data (PubChem)
MT1-MMP promoter = inhibitors of MT1-MMP promoter transcription, cell-based, luciferase reporter, luminescence (AID 618); MT1-MMP promoter luciferase reporter cells, luminescence; calls from a first round at 10 µM; hits with a dose series show EC50 in µM; hit rate 0.62% among 87,000;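 active = over half of the reporter light lost at 10 µM or EC50 under 50 µM; inactive = the rest and hits that failed the dose series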;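 note: actives suppress MT1-MMP promoter-driven transcription so potencies describe inhibitors; HT1080 fibrosarcoma cells; overnight exposure; toxic or luciferase-blocking compounds were not removed from the actives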
WNV NS2B-NS3 inh = inhibitors of WNV NS2B-NS3 protease, primary screen, biochemical, fluorogenic substrate; Genome polyprotein (West Nile virus), P06935; fluorogenic substrate Ex360/Em465; stronger effect = lower value; z-score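 (tested at a level between 10 and 100 µM)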; hit rate 0.18% among 65,000;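 active = z-score at -3 or under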;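 note: score is relative to mean and spread of the compound wells of a plate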
Target sequence (P06935 1371-1501 limits assumed): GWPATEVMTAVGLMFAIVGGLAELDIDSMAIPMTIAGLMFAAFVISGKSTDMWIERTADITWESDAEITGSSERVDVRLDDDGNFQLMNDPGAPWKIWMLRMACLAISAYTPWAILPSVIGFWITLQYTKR
Target sequence (P06935 1502-1679 limits assumed): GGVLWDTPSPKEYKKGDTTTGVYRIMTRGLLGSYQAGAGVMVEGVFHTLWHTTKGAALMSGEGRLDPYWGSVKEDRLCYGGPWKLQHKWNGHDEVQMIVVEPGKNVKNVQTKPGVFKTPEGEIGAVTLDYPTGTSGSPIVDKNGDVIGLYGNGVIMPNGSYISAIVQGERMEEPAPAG
Hsc70 = Hsc70 inhibitors, probe displacement, primary screen, biochemical, fluorescence polarization (AID 568); Heat shock cognate 71 kDa protein (Homo sapiens); Hsc70 fluorescence polarization, probe displacement; higher % means a stronger effect; strong numbers were not always called active; displacement, % at 20 µM, or IC50 in µM where a hit was titrated; 83,000 tested, under 10 active;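 active = displacement above 50% without optical interference and an IC50 on retest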;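 note: ATPase domain with a fluorescein-tagged ATP probe; 0% = vehicle and 100% = excess ADP; read after one hour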
Numbers without * were called inactive; i = inactive; x = no result given.

Values in the order – MT1-MMP promoter	WNV NS2B-NS3 inh	Hsc70
> O=C(NCc1cccs1)c1cc2c(s1)CS(=O)(=O)C2
  i	-0.2	-7.1%
> CCc1ccccc1N1CC23C=CC(O2)C(C(=O)OC)C3C1=O (stereo unspecified)
  i	-0.15	2.0%
> CC(=O)Nc1ccc(OCC(=O)c2cc(C)ccc2C)cc1
  i	x	-3.2%
> COc1ccc(-c2noc(CCN3C(=O)c4ccccc4C3=O)n2)cc1OC
  i	0.04	5.1%
> Cc1ccc(S(=O)(=O)N2CCC(C(=O)N[C@@H](C)C(=O)NCC3CCCO3)CC2)cc1 (stereo partly specified)
  i	-0.8	3.6%
> CC(=O)Nc1cccc(-c2nnc(SCC(=O)N3CCCCC3)n2C)c1
  i	-0.9	5.9%
> COc1ccc(C(=O)Nc2ccc(Cl)cc2C(=O)NCCO)cc1
  i	-0.46	-4.1%
> O=C(Cc1cccs1)NCc1cccnc1
  i	x	-2.7%
> O=C(Nc1nnc(-c2ccc(Cl)cc2)o1)c1ccccc1Br
  i	2.6	-1.0%
> CCCOc1ccc(N2C(=O)CC(N3CCN(S(=O)(=O)c4ccccc4)CC3)C2=O)cc1 (stereo unspecified)
  i	x	3.6%
> O=C(OCCNC(=O)c1cc2ccccc2oc1=O)c1cccnc1
  i	-1.3	0.9%
> Fc1ccc2[nH]c3c(N4CCSCC4)ncnc3c2c1
  i	-0.75	-4.2%
> O=C(NC1CC2CCC(C1)N2Cc1nnnn1Cc1ccco1)NC12CC3CC(CC(C3)C1)C2 (stereo unspecified)
  i	-0.85	6.0%
> COC(=O)c1ccc(CSc2ccc3nnc(-c4ccccn4)n3n2)o1
  i	1.1	2.9%
> O=C(CCN1CCCCC1)c1ccc2c(c1)OCCO2
  i	-0.59	1.0%
> NC(=O)N1OCC2COc3ccc4ccccc4c3C21 (stereo unspecified)
  i	x	3.6%
> Cn1c(=O)c2c(SCC(=O)NCC3CCCO3)nc(-c3cccs3)nc2n(C)c1=O (stereo unspecified)
  i	0.19	-0.5%
> COCCNC(=O)CS(=O)Cc1nc(-c2ccccc2C)oc1C (stereo unspecified)
  i	0.52	4.0%
> CCn1c(NC(=O)c2ccccc2)c(-c2cccs2)c(=O)c2ccccc21
  i	x	0.6%
> O=S(=O)(c1ccccc1)n1nc(-c2ccccc2)nc1NCc1ccco1
  i	1.1	2.8%
> COc1ccc2nc(NC(=O)CSC3=NCCS3)sc2c1
  i	1.2	2.2%
> Cc1ccc(NC(=O)CSc2nnc(-c3ccc(S(=O)(=O)N4CCOCC4)cc3)n2C)cc1
  i	0.27	2.1%
> CC(C)(C)c1ccc(C2(C)NC(=O)N(CC(=O)Nc3ccc4c(c3)OCO4)C2=O)cc1 (stereo unspecified)
  i	x	-5.2%
> O=c1[nH]c(CN2CCN(C/C=C/c3ccccc3)CC2)nc2cc(Cl)ccc12
  i	-0.76	-3.4%
> COc1ccc(F)cc1S(=O)(=O)Nc1ccc2c(c1)OCO2
  i	-0.73	-0.9%
> COc1ccc(N2CCN(Cc3nc4c(c(=O)[nH]c(=O)n4C)n3Cc3cccc(Cl)c3)CC2)cc1
  i	-0.47	-0.3%
> COc1cccc(NC(=O)N2CCN(c3cccc(C)c3)C(C)C2)c1 (stereo unspecified)
  i	0.63	-1.8%
> O=c1cc(NCCCO)c2ccccc2o1
  i	x	-3.7%
> CC(=O)Nc1nc2ccccc2n1CCOc1ccccc1Cl
  i	-5.6*	2.0%
> Cc1ccc(C(=O)C(NC(=O)c2ccco2)Nc2sc3c(c2C(N)=O)CCCC3)cc1 (stereo unspecified)
  i	x	-0.6%

Single values from the entries so far.
Under Hsc70, COc1cccc(NC(=O)N2CCN(c3cccc(C)c3)C(C)C2)c1 (stereo unspecified) is listed with -1.8%
Under WNV NS2B-NS3 inh, Cc1ccc(NC(=O)CSc2nnc(-c3ccc(S(=O)(=O)N4CCOCC4)cc3)n2C)cc1 is listed with 0.27
Under Hsc70, CC(=O)Nc1ccc(OCC(=O)c2cc(C)ccc2C)cc1 is listed with -3.2%
Under Hsc70, O=C(NC1CC2CCC(C1)N2Cc1nnnn1Cc1ccco1)NC12CC3CC(CC(C3)C1)C2 (stereo unspecified) is listed with 6.0%

The listing picks up, starting 3 compounds before the break.
Values in the order – MT1-MMP promoter	WNV NS2B-NS3 inh	Hsc70
> O=c1cc(NCCCO)c2ccccc2o1
  i	x	-3.7%
> CC(=O)Nc1nc2ccccc2n1CCOc1ccccc1Cl
  i	-5.6*	2.0%
> Cc1ccc(C(=O)C(NC(=O)c2ccco2)Nc2sc3c(c2C(N)=O)CCCC3)cc1 (stereo unspecified)
  i	x	-0.6%
> Fc1cccc(CSc2ncnc3c2oc2ccccc23)c1
  i	-0.88	0.2%
> C=CCn1c(CNC(=O)c2ccco2)nnc1SCC(=O)Nc1cccc(Br)c1
  i	x	3.2%
> Cc1nc2ccc(S(=O)(=O)NC(CC(C)C)C(=O)O)cc2s1 (stereo unspecified)
  i	-0.79	-9.2%
> COc1nc(OCCNC(=O)Nc2ccccc2)nc(N(C)C)n1
  i	-1	-9.4%
> COc1ccccc1CNC(=O)CCS(=O)(=O)c1ccc2c(c1)CCCN2C(C)=O
  i	1.1	5.9%
> COc1ccc(-c2cc3nc(C)cc(N4CC(C)CC(C)C4)n3n2)cc1 (stereo unspecified)
  i	x	-4.2%
> CC(NC(=O)NC12CC3CC(CC(C3)C1)C2)C1CCCO1 (stereo unspecified)
  i	0.56	-0.3%
> Cc1ccc2cccc(S(=O)(=O)N3CCN(c4ccccc4F)CC3)c2n1
  i	-1.2	-0.1%
> CC(c1ccco1)N(Cc1ccco1)C(=O)Nc1ccccc1 (stereo unspecified)
  i	0.1	-2.3%
> C=Cc1cccc(NC(=O)COc2ccccc2)c1
  i	-0.81	4.8%
> COc1cc(NS(=O)(=O)c2ccccc2)ccc1-n1nc(C)cc1C
  i	-0.38	-4.1%
> Cc1ccc2cc(C(c3nnnn3Cc3ccccc3)N3CCN(c4ccccc4)CC3)c(=O)[nH]c2c1 (stereo unspecified)
  i	1.7	-6.5%
> COc1cccc(Cn2c(-c3cccs3)noc2=O)c1
  i	0.69	-0.7%
> CCCNC(=O)N1CCC(C(=O)c2ccc(Cl)cc2)CC1
  i	x	4.6%
> CC1(C)SC2[C@H](NC(=O)C(NC(=O)N3CCNC3=O)c3ccccc3)C(=O)N2C1C(=O)O (stereo partly specified)
  i	0.09	2.0%
> Cc1sc2nc(SCC(=O)N(C)C)[nH]c(=O)c2c1C
  i	-1.1	1.8%
> Cc1ccc2cc3cc(C(=O)NCc4ccc5c(c4)OCO5)oc3nc2c1
  i	-0.7	-1.6%
> Cn1c(=O)c2c(ncn2CC(O)CO)n(C)c1=O (stereo unspecified)
  i	-0.37	4.9%
> O=C(CCN1C(=O)CSC1=O)Nc1ccccc1
  i	-0.00088	0.6%
> CC1=CCC2C(=O)N(c3ccc(C)c(Br)c3)C(=O)C2C1 (stereo unspecified)
  i	-1.1	1.1%
> O=C(c1ccc(Br)s1)N1CCN(c2ncccn2)CC1
  i	-1.5	-1.1%
> Cc1cc(-c2nnc3n2N=C(C(C)(C)C)CS3)n[nH]1
  i	0.98	-5.1%
> C=CCNC(=S)NNC(=O)c1ccc(OCC(C)C)cc1
  i	x	-0.4%
> Cc1ccc2nsnc2c1S(=O)(=O)N1CCN(Cc2ccc3c(c2)OCO3)CC1
  i	0.35	4.0%
> COC(=O)C1(C)Nc2ccccc2C(=O)N1c1ccccc1OC (stereo unspecified)
  i	2	-0.1%
> COc1ccc(COC(=O)c2nc3nc(C)cc(C)n3n2)cc1F
  i	0.09	-2.1%
> CCN(C(=O)COc1cc(=O)n(CC)c2ccccc12)c1cc(Cl)ccc1OC
  i	-1.1	1.0%
> CC(=O)CSc1nnc(Cc2ccc3c(c2)OCO3)o1
  i	x	1.7%
> CCCn1c2ccccc2c2nc3ccccc3nc21
  i	0.05	6.1%
> COc1ccc(NC(=O)[C@H](CCS(C)(=O)=O)N2Cc3ccccc3C2=O)c(OC)c1
  i	-1.1	3.9%

Additional compounds:
Values in the order – MT1-MMP promoter	WNV NS2B-NS3 inh	Hsc70
> CCCCC(c1nnnn1CC1CCCO1)N1CCN(c2cccc(C)c2C)CC1 (stereo unspecified)
  i	0.98	4.0%
> Cc1cc(C)c2cc(CN(Cc3ccc4c(c3)OCO4)Cc3nnnn3Cc3ccco3)c(=O)[nH]c2c1
  i	-0.21	-4.1%
> CC1Cc2cc(/C(O)=C3\C(=O)C(=O)N(CCN4CCOCC4)C3c3ccccc3F)ccc2O1 (stereo unspecified)
  i	-0.66	-8.6%
> COC(=O)c1c(C(=O)OC)n(CCCN)c2ccc(C)cc12
  i	0.08	3.8%
> CC(C)(C)NC(=O)C(c1ccc(O)cc1)N(Cc1ccco1)C(=O)Cn1nnc(-c2cccs2)n1 (stereo unspecified)
  i	x	4.3%
> CCOC(=O)C(C)c1c(C)[nH]c(=S)[nH]c1=O (stereo unspecified)
  i	x	-1.2%
> Cc1ccc(-n2cnnn2)c(S(=O)(=O)N2CCOCC2)c1
  i	0.37	9.8%
> Cc1cc(NC(=O)C2CCC2)n(-c2ccccn2)n1
  i	-2	5.9%
> O=C(CN(c1ccc2c(c1)OCCO2)S(=O)(=O)c1ccccc1)NCc1ccco1
  i	0.48	2.0%
> Cc1ccc(-n2nc3c(c2NC(=O)c2ccc(Br)o2)CSC3)c(C)c1
  i	0.35	-8.4%
> CCN(CCNC(=O)c1cc(C)nn1-c1ccccc1)c1ccccc1
  i	0.17	-1.9%
> Cc1noc(C)c1S(=O)(=O)N1CCC2(CC1)OCCO2
  i	2.1	7.0%
> Cc1nc2nc(CCc3ccccc3)nn2c(C)c1Cl
  i	x	6.4%
> CCC1CCc2c(sc(NC(=O)CSc3nc(-c4ccco4)cc(C(F)(F)F)n3)c2C#N)C1 (stereo unspecified)
  i	x	-1.3%
> Cc1ccc(S(=O)(=O)N2CCC(C(N)=O)CC2)c(C)c1C
  i	x	2.6%
> C=C(Cl)COc1ccc2c(CCC)cc(=O)oc2c1
  i	x	-2.4%
> Cc1ccc(N2CC(C(=O)NCc3cccs3)CC2=O)cc1C (stereo unspecified)
  i	x	1.5%
> CCn1c(=O)cc(SCC(=O)Nc2ccc3c(c2)OCCO3)c2ccccc21
  i	-0.98	3.1%
> CCOC(=O)C1C(=O)C=C(c2ccc(OC)cc2)CC1c1ccco1 (stereo unspecified)
  i	0.71	-1.4%
> Brc1cccc(-c2nnc(SCc3nc4ccccc4[nH]3)o2)c1
  i	-0.05	6.0%
> Nc1ccc(-c2nc3ccccc3[nH]2)cc1
  i	-0.8	-1.3%
> CCn1c(SCc2nc(-c3cccs3)no2)nnc1-c1c[nH]c2ccccc12
  i	-0.6	3.8%
> Cc1cc(N2CCC(C)CC2)nc(-n2nc(C)cc2C)n1
  i	-1.4	4.2%
> CCOC(=O)Cc1csc(NC(=O)c2c(-c3c(Cl)cccc3Cl)noc2C)n1
  i	x	-1.5%
> O=C(COc1cccc(-n2cnnn2)c1)Nc1ccccc1
  i	x	-3.7%
> CCOC(=O)c1cn(CC(=O)Nc2ccc(C)cc2)nn1
  i	-0.79	-1.9%
> C[C@@H](C(=O)NCc1ccccc1)N1C(=O)C2CC=CCC2C1=O (stereo partly specified)
  i	x	-1.1%
> CCN1CCCC1CNC(=O)CN1C(=O)COc2ccc(C)cc21 (stereo unspecified)
  i	-1.9	4.8%
> Cc1cc2oc(=O)cc(COC(=O)c3cccc(N(C)C)c3)c2cc1C
  i	-0.37	3.2%
> CC1(C)CC2CC(C)(CN2S(=O)(=O)c2cccc(N)c2)C1 (stereo unspecified)
  i	x	2.6%

Next structures follow:
Values in the order – MT1-MMP promoter	WNV NS2B-NS3 inh	Hsc70
> Nc1nncn1C(=O)CCc1ccccc1
  i	-0.13	-3.8%
> CCCCC(c1nnnn1C1CCCC1)N1CCN(C(=O)c2ccco2)CC1 (stereo unspecified)
  i	-1.1	-0.7%
> Cc1ccc(-c2nnn(CC(=O)N(Cc3cccs3)C(C(=O)NC3CCCC3)c3ccco3)n2)o1 (stereo unspecified)
  i	0.91	-7.4%
> O=C(Nn1c(=S)[nH]c2ccccc2c1=O)c1ccncc1
  i	1.3	4.5%
> Cc1cccc(NC(=O)NCC(c2cccnc2)N2CCOCC2)c1 (stereo unspecified)
  i	1.7	-4.3%
> CCC(C)NC(=O)c1n[nH]c(=O)c2ccccc12 (stereo unspecified)
  i	-0.19	5.5%
> O=C(Nc1ccncc1)Nc1ccc(F)cc1F
  i	0.5	6.6%
> COC(=O)c1c(C(=O)OC)c(-c2ccc(C)cc2)n2c1CS(=O)C2 (stereo unspecified)
  i	x	4.6%
> Cc1ccc(-c2nn3nnnc3c3ccccc23)cc1C
  i	x	-1.1%
> CC1CCCCC1NC(=O)COc1ccc(-n2cnnn2)cc1 (stereo unspecified)
  i	1	-1.2%
> Cc1nc(N2CCN(C)CC2)[nH]c(=O)c1Cc1cccc2ccccc12
  i	-0.91	1.2%
> CCN(CC)C(=O)CSc1nsc(SCC(=O)N(CC)CC)c1C#N
  i	0.24	-1.9%

3 structures already listed, ordered by molar mass, high to low:
Values in the order – MT1-MMP promoter	WNV NS2B-NS3 inh	Hsc70
> Cc1ccc(-c2nn3nnnc3c3ccccc23)cc1C
  i	x	-1.1%
> O=C(Nc1ccncc1)Nc1ccc(F)cc1F
  i	0.5	6.6%
> Nc1nncn1C(=O)CCc1ccccc1
  i	-0.13	-3.8%
